Screening results as filed in PubChem BioAssay.
Yeast UUG start: modulators of yeast start codon fidelity, primary screen, whole organism, S. cerevisiae, single point, plate reader; activity score, % at 18.7 µM; S. cerevisiae UUG-firefly luciferase reporter, luminescence/redox ratio; 0.13% of 350,000 active;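 active means replicate mean at a twofold rise or more, about +100% in these data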;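 further: firefly luciferase made from a UUG start codon reports start codon fidelity; reporter light over untreated wells divided by growth signal over untreated wells; some hits fall short of that in this replicate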
Active calls of the source: *; & = joins results of further samples. A portion of the library; the hit share may differ from the screen's.

Yeast UUG start	SMILES
-7	CN(C)C(=O)c1cccc(-c2ccc([C@H]3[C@@H](CO)N4CCCCN(CCC(F)(F)F)C[C@H]34)cc2)c1
0	CC(C)NC(=O)N1C[C@H]2[C@@H](c3ccccc31)[C@H](CO)N2C(=O)NC(C)C
-12	O=C(Nc1ccc(F)cc1)N1C[C@@H]2[C@H](c3ccccc31)[C@H](CO)N2C(=O)c1ccccn1
-5	COc1ccc(NC(=O)N(C)C[C@@H]2Oc3ccc(NS(=O)(=O)c4c(C)noc4C)cc3C(=O)N([C@@H](C)CO)C[C@H]2C)cc1
2	COc1ccc(NC(=O)Nc2cccc3c2O[C@@H](CN(C)Cc2ccc(C(=O)O)cc2)[C@@H](C)CN([C@H](C)CO)C3=O)cc1
13	C[C@@H]1CN([C@H](C)CO)C(=O)c2cccc(NC(=O)c3ccncc3)c2O[C@H]1CN(C)C(=O)Nc1ccccc1
11	C[C@H](NC(=O)C[C@H]1CC[C@@H]2[C@H](COC[C@H](O)CN2C(=O)Nc2cccc(F)c2)O1)c1ccccc1
-7	CN1c2ccc(Br)cc2[C@H]2[C@H](CCN2C(=O)c2cccc(F)c2)[C@@H]1CO
-3	Cc1ccc(-c2ccc([C@@H]3[C@H]4CN(C(=O)c5ccc(F)cc5)CCCCN4[C@H]3CO)cc2)cc1
-3	O=C(c1ccncc1)N1C[C@@H]2[C@H](c3ccccc31)[C@@H](CO)N2C(=O)c1ccncc1
28	CO[C@@H]1CN(C)C(=O)c2ccc(NC(=O)NC(C)C)cc2OC[C@H](C)N(Cc2ccccc2)C[C@H]1C
-4	CO[C@H]1CN(C)C(=O)c2ccc(NC(=O)c3nc4ccccc4s3)cc2OC[C@@H](C)N(Cc2ccncc2)C[C@@H]1C
-1	COc1ccccc1-c1ccc([C@@H]2[C@@H](CO)N3CCCCN(S(=O)(=O)c4cn(C)cn4)C[C@H]23)cc1
25	C[C@@H]1CN([C@H](C)CO)C(=O)Cc2cc(NC(=O)Cn3cnnn3)ccc2O[C@@H]1CN(C)Cc1ccc(-c2ccccc2)cc1
-16	OC[C@H]1[C@H](c2ccc(/C=C/c3ccccc3)cc2)[C@@H]2CN(Cc3ccncc3)CCCCN12
9	O=C(C[C@H]1CC[C@@H]2NC[C@H](O)COC[C@H]2O1)NCCc1ccccc1
25	C[C@@H]1CN([C@H](C)CO)C(=O)CCCn2nncc2CO[C@H]1CN(C)C(=O)Nc1cccc(F)c1
2	CO[C@H]1CN(C)C(=O)c2cc(NC(=O)C3CCC3)ccc2OC[C@@H](C)N(Cc2cccnc2)C[C@H]1C
1	CCC(=O)N1C[C@@H](C)[C@@H](OC)CN(C)C(=O)c2ccc(NC(=O)C3CC3)cc2OC[C@H]1C
26	CCCC#Cc1ccc([C@H]2[C@H]3CN(CC4CCOCC4)CCCCN3[C@H]2CO)cc1
9	CO[C@H]1CN(C)C(=O)c2ccc(NC(=O)C3CC3)cc2OC[C@@H](C)N(CC2CC2)C[C@@H]1C
11	O=C(NC1CCCC1)N1CCCCN2[C@H](CO)[C@H](c3ccc(-c4cncnc4)cc3)[C@@H]2C1
16	COc1ccc(NC(=O)N2C[C@@H](O)COC[C@H]3O[C@H](CC(=O)NC4Cc5ccccc5C4)CC[C@@H]32)cc1
-4	O=S(=O)(c1ccc(F)cc1)N1CC[C@@H]2[C@H]1c1cc(-c3ccccc3F)ccc1N[C@@H]2CO
-4	C[C@H](CO)N1C[C@H](C)[C@H](CN(C)C)Oc2c(NS(=O)(=O)c3ccc(Cl)cc3)cccc2C1=O
9	COCC#Cc1ccc([C@@H]2[C@H]3CN(C(=O)Nc4cc(F)ccc4F)CCCCN3[C@H]2CO)cc1
-15	COc1ccc(NC(=O)N2C[C@H]3[C@@H](c4ccccc42)[C@H](CO)N3Cc2ccccn2)cc1
-12	O=C(c1ccccc1F)N1CC[C@H]2[C@H](CO)Nc3ccc(Br)cc3[C@H]21
11	COc1ccc(CN(C)C[C@H]2Oc3ccc(NS(=O)(=O)c4cn(C)cn4)cc3CC(=O)N([C@@H](C)CO)C[C@H]2C)cc1
-4	C[C@@H]1CN([C@@H](C)CO)C(=O)c2cc(NC(=O)CCCCCC(=O)Nc3ccccc3N)ccc2O[C@@H]1CN(C)S(=O)(=O)c1cccs1
10	O=C(C[C@H]1CC[C@@H]2[C@H](COC[C@@H](O)CN2S(=O)(=O)c2ccc(F)cc2)O1)N[C@H]1CCN(Cc2ccccc2)C1
0	C/C=C/c1ccc([C@@H]2[C@H]3CN(S(=O)(=O)c4ccc(OC)cc4)CCCCN3[C@H]2CO)cc1
28	O=C(C1CCCC1)N1C[C@H]2[C@@H](c3ccccc31)[C@H](CO)N2C(=O)Nc1cccc(F)c1
12	CCCC(=O)N1C[C@@H]2[C@H](c3ccccc31)[C@H](CO)N2C(=O)Nc1ccccc1
-11	COc1cccc(-c2ccc3c(c2)[C@H]2[C@H](CCN2C(=O)Nc2ccccc2OC)[C@H](CO)N3C)c1
-17	COc1ccc(C#Cc2ccc3c(c2)[C@@H]2[C@@H](CCN2S(=O)(=O)c2ccc(OC)cc2)[C@@H](CO)N3C)cc1
-25	CN(C)CC(=O)N1CCCCN2[C@H](CO)[C@H](c3ccc(-c4cccc(C(=O)N(C)C)c4)cc3)[C@H]2C1
-12	CC(=O)N1[C@H](CO)[C@@H]2c3ccccc3N(C(=O)c3ccccc3)C[C@@H]21
1	CN1c2ccc(-c3ccccc3)cc2[C@@H]2[C@@H](CCN2C(=O)CN2CCOCC2)[C@@H]1CO
-4&-12	CC(=O)N1[C@@H](CO)[C@H](c2ccccc2)[C@@H]1CN(C(=O)NC(C)C)C1CCCC1

Quoted from above (12 entries):
Yeast UUG start	SMILES
11	COc1ccc(CN(C)C[C@H]2Oc3ccc(NS(=O)(=O)c4cn(C)cn4)cc3CC(=O)N([C@@H](C)CO)C[C@H]2C)cc1
-4	C[C@@H]1CN([C@@H](C)CO)C(=O)c2cc(NC(=O)CCCCCC(=O)Nc3ccccc3N)ccc2O[C@@H]1CN(C)S(=O)(=O)c1cccs1
10	O=C(C[C@H]1CC[C@@H]2[C@H](COC[C@@H](O)CN2S(=O)(=O)c2ccc(F)cc2)O1)N[C@H]1CCN(Cc2ccccc2)C1
0	C/C=C/c1ccc([C@@H]2[C@H]3CN(S(=O)(=O)c4ccc(OC)cc4)CCCCN3[C@H]2CO)cc1
28	O=C(C1CCCC1)N1C[C@H]2[C@@H](c3ccccc31)[C@H](CO)N2C(=O)Nc1cccc(F)c1
12	CCCC(=O)N1C[C@@H]2[C@H](c3ccccc31)[C@H](CO)N2C(=O)Nc1ccccc1
-11	COc1cccc(-c2ccc3c(c2)[C@H]2[C@H](CCN2C(=O)Nc2ccccc2OC)[C@H](CO)N3C)c1
-17	COc1ccc(C#Cc2ccc3c(c2)[C@@H]2[C@@H](CCN2S(=O)(=O)c2ccc(OC)cc2)[C@@H](CO)N3C)cc1
-25	CN(C)CC(=O)N1CCCCN2[C@H](CO)[C@H](c3ccc(-c4cccc(C(=O)N(C)C)c4)cc3)[C@H]2C1
-12	CC(=O)N1[C@H](CO)[C@@H]2c3ccccc3N(C(=O)c3ccccc3)C[C@@H]21
1	CN1c2ccc(-c3ccccc3)cc2[C@@H]2[C@@H](CCN2C(=O)CN2CCOCC2)[C@@H]1CO
-4&-12	CC(=O)N1[C@@H](CO)[C@H](c2ccccc2)[C@@H]1CN(C(=O)NC(C)C)C1CCCC1

Other entries:
Yeast UUG start	SMILES
-2	O=C(c1cccnc1)N1C[C@H]2[C@@H](c3ccccc31)[C@H](CO)N2C(=O)C1CCCCC1
14	O=C(C[C@@H]1CC[C@H]2[C@@H](COC[C@@H](O)CN2S(=O)(=O)c2ccccc2)O1)NCc1ccc2c(c1)OCO2
-14	Cc1cc(C(=O)Nc2cccc3c2O[C@@H](CN(C)Cc2ccncc2)[C@@H](C)CN([C@@H](C)CO)C3=O)n(C)n1
-12	O=C(c1ccccc1)N1CC[C@@H]2[C@H](CO)Nc3ccc(C#Cc4cccc(F)c4)cc3[C@@H]21
20	O=C(Nc1cccc(F)c1)N1C[C@H]2[C@@H](c3ccccc31)[C@@H](CO)N2C(=O)Cc1ccccn1
-2	CO[C@H]1CN(C)C(=O)c2ccc(NS(=O)(=O)c3cccc(F)c3)cc2OC[C@H](C)N(C(=O)Cc2cccnc2)C[C@H]1C
4	Cc1ccc(S(=O)(=O)N(C)C[C@H]2Oc3ccc(N(C)C)cc3CC(=O)N([C@@H](C)CO)C[C@H]2C)cc1
-5	COc1ccc(NC(=O)Nc2ccc3c(c2)CC(=O)N([C@@H](C)CO)C[C@@H](C)[C@H](CN(C)C(=O)Nc2ccccc2)O3)cc1
23	C[C@H](NC(=O)[C@@H]1[C@@H](CO)[C@@H]2Cn3c(cccc3=O)[C@H]1N2Cc1ccccc1)c1ccccc1
-13	C[C@@H]1CN([C@H](C)CO)C(=O)c2cccc(NS(C)(=O)=O)c2O[C@H]1CN(C)C(=O)Nc1ccccc1
1	C[C@H](CO)N1C[C@H](C)[C@@H](CN(C)S(=O)(=O)c2ccc(F)cc2)Oc2ccc(NC(=O)C3CCCCC3)cc2CC1=O
-5	OC[C@@H]1[C@H](c2ccc(-c3cccnc3)cc2)[C@H]2CN(CC3CC3)CCCCN12
19	O=C(c1ccccn1)N1C[C@@H]2[C@H](c3ccccc31)[C@@H](CO)N2C(=O)C1CCCCC1
-4	CN(C)CCCNC(=O)C[C@@H]1CC[C@H]2[C@H](COc3ccc(NC(=O)c4ccccc4F)cc3C(=O)N2C)O1
10	C[C@H]1CN([C@@H](C)CO)C(=O)Cc2cc(NC(=O)Nc3ccccc3)ccc2O[C@H]1CN(C)Cc1ccc(C(=O)O)cc1
8	COc1cccc(C(=O)N2C[C@H]3[C@@H](c4ccccc42)[C@H](CO)N3Cc2ccccc2Cl)c1
1	O=C(c1cccc(F)c1)N1C[C@@H]2[C@H](c3ccccc31)[C@@H](CO)N2C(=O)c1ccc(F)cc1
10	COc1ccc(CN(C)C[C@H]2Oc3ccc(NC(=O)Nc4ccc(OC)cc4)cc3CC(=O)N([C@@H](C)CO)C[C@@H]2C)cc1
-6	CO[C@H]1CN(C)C(=O)c2cc(NC(=O)Nc3ccc(F)cc3)ccc2OC[C@H](C)NC[C@H]1C
9	CO[C@@H]1CN(C)C(=O)c2cc(NC(=O)Nc3ccccc3)ccc2OC[C@@H](C)N(C(=O)Nc2c(C)noc2C)C[C@H]1C
8	Cc1noc(C)c1NC(=O)N(C)C[C@@H]1Oc2ccc(NS(=O)(=O)c3ccc(F)cc3)cc2C(=O)N([C@@H](C)CO)C[C@@H]1C
1	O=C(C[C@@H]1CC[C@H]2NC[C@H](O)COC[C@@H]2O1)Nc1ccccc1
-10	O=C(C[C@@H]1CC[C@@H]2[C@H](COC[C@H](O)CN2C(=O)c2ccccc2F)O1)N1CCOCC1
13	CC(C)NC(=O)Nc1ccc2c(c1)C(=O)N([C@@H](C)CO)C[C@@H](C)[C@H](CN(C)Cc1ccc(C(F)(F)F)cc1)O2
-16	C[C@@H]1CN([C@@H](C)CO)C(=O)Cc2cc(NC(=O)c3ccncc3)ccc2O[C@@H]1CN(C)S(=O)(=O)c1ccc(F)cc1
-2	C[C@@H](NC(=O)C[C@@H]1CC[C@H]2[C@H](COc3ccc(NC(=O)C4CCOCC4)cc3C(=O)N2C)O1)c1ccccc1
-10	COc1ccc(CN(C)C[C@@H]2OCc3cnnn3CCCC(=O)N([C@@H](C)CO)C[C@@H]2C)cc1
11	O=C(Nc1ccc(F)cc1)N1CCCCN2[C@H](CO)[C@@H](c3ccc(C#Cc4ccccc4)cc3)[C@@H]2C1
-7	CCC(=O)Nc1ccc2c(c1)OC[C@H](C)N(Cc1ccccn1)C[C@@H](C)[C@@H](OC)CN(C)C2=O
26	COCC(=O)N1C[C@H]2[C@@H](c3ccccc31)[C@H](CO)N2C(=O)Nc1ccccc1F
6	O=S(=O)(c1ccccc1)N1[C@@H](CO)[C@@H]2c3ccccc3NC[C@@H]21
13	O=C(C[C@H]1CC[C@@H]2[C@H](COC[C@@H](O)CN2C(=O)Nc2cc(Cl)cc(Cl)c2)O1)N1CCCCC1
-14	O=C(c1ccccc1F)N1CC[C@@H]2[C@H](CO)Nc3ccc(-c4cccc(F)c4)cc3[C@@H]21
-6	C[C@H]1CN([C@@H](C)CO)C(=O)c2cc(NC(=O)c3ccncc3)ccc2O[C@@H]1CN(C)C
-6	COc1ccccc1NC(=O)N1C[C@@H](O)COC[C@@H]2O[C@@H](CC(=O)NCCc3ccccc3)CC[C@H]21
8	CC(C)NC(=O)Nc1ccc2c(c1)C(=O)N([C@@H](C)CO)C[C@H](C)[C@@H](CN(C)Cc1ccc(C(F)(F)F)cc1)O2
-12	COCC(=O)Nc1ccc2c(c1)[C@@H]1C[C@@H](CC(=O)NCc3cc(F)ccc3F)O[C@H](CO)[C@@H]1O2
4	O=C(NC1CCCC1)N1CCCCN2[C@H](CO)[C@@H](c3ccc(-c4ccncc4)cc3)[C@H]2C1
-9	C[C@H](CO)N1C[C@H](C)[C@@H](CN(C)Cc2ccc(C(F)(F)F)cc2)Oc2c(NS(=O)(=O)c3ccccc3)cccc2C1=O
-23	O=C(C[C@@H]1CC[C@@H]2[C@H](COC[C@@H](O)CN2C(=O)c2cnccn2)O1)NCc1ccccc1
3	CC=Cc1ccc2n(c1=O)C[C@@H]1[C@@H](CO)[C@H](C(=O)N3CCN(C)CC3)N(Cc3ccccc3OC)[C@H]21 (mixture of isomers)
13	C/C=C/c1ccc([C@@H]2[C@@H](CO)N3CCCCN(S(=O)(=O)c4cccc(C)c4)C[C@H]23)cc1
7	CO[C@@H]1CN(C)C(=O)c2cc(NS(=O)(=O)c3cccc(F)c3)ccc2OC[C@@H](C)N(Cc2cc(F)ccc2F)C[C@@H]1C
-4	O=C(C[C@@H]1CC[C@@H]2[C@H](COC[C@@H](O)CN2Cc2ccncc2)O1)NCc1ccncc1
6	O=C(C[C@@H]1CC[C@@H]2[C@H](COC[C@@H](O)CN2C(=O)c2ccccn2)O1)N1CCN(c2ccccc2)CC1
